Screens: PubChem, ICCB-Longwood Screening Facility, Harvard Medical School
MgrA-DNA mod = S. aureus MgrA activity modulators, primary screen, biochemical, S. aureus Newman, fluorescence polarization; AID 602314, 2012; inhibition, %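 (about 10 µg/mL by stock and volumes)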; MgrA-DNA binding; actives 0.13% (n = 84,000);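 active = above 50% in either of two replicates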;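 note: 0% = protein plus DNA without compound and 100% = DNA alone without protein; higher means less MgrA bound to DNA so lower polarization; one replicate is shown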
Sa helicase inh = inhibitors of S. aureus replicative helicase, primary screen, biochemical, fluorescence unwinding readout; replicative DNA helicase (DnaC/DnaB), Staphylococcus aureus; purified S. aureus helicase, fluorescence unwinding assay; about half of the hits fall short of the stated cut; inhibition, %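 (tested at about 80 µM)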; actives 0.05% (n = 120,000); AID 485395, 2010;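 active = both duplicates at 50% or more, or one of them with a favoured structure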;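 note: 0% = mean of negative control wells and 100% = mean of positive control wells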
* hit, by the source's call; . = no result given. Only part of the results is shown (hit frequency here may not be typical).

| MgrA-DNA mod | Sa helicase inh | mol |
| --- | --- | --- |
| . | 21 | COC(=O)C1C(=O)NC(SCC(=O)Nc2cccc(OC)c2)=C(C#N)C1c1ccc(OC)cc1 (configuration not stated) |
| -0.2 | -15 | O=C1CCCC(=O)C1Sc1ccc(Cl)cc1 |
| . | 14 | O=C(c1ccco1)N(Cc1ccccc1)c1nc2c(F)cc(F)cc2s1 |
| . | 6 | CC1=CC(C)=NC2=C(c3ccccc3)SC(=C3C(=O)c4ccccc4C3=O)N12 |
| 6.3 | 1 | O=C1/C(=C/c2ccco2)SC(=S)N1CN1CCN(c2ccccc2)CC1 |
| . | 2 | CCOC(=O)CCN1C(=O)/C(=C/c2ccccc2OC)SC1=S |
| 1.3 | -5 | O=C1CC(Sc2ccccc2)C(=O)N1c1ccccc1 (configuration not stated) |
| . | -20 | O=C(c1ccc(S(=O)(=O)N2CCCCC2)cc1)N1CCN(c2cccc(Cl)c2)CC1 |
| . | 7 | O=S(=O)(NCCc1ccccn1)C1=Cc2ccccc2CC1 |
| . | 20 | O=C(O)CC(CC(=O)N1CCN(c2ncccn2)CC1)c1ccccc1 (configuration not stated) |
| 0.3 | -10 | COc1cccc(Cn2c(SCc3ccc(C(=O)NC4CCCC4)cc3)nc3ccncc32)c1 |
| . | 17 | ONC1=NCCCCC1 |
| 2.5 | 8 | O=C(Nc1ccccc1)Nc1ccc2c(c1)OCO2 |
| -0.3 | . | COc1cc(C(=O)N=Nc2c(O)[nH]c3ccc(Br)cc23)cc(OC)c1OC |
| 3.8 | 12 | C=CCn1c(SCC(=O)NCCc2ccccc2)nc2sc3c(c2c1=O)CCCC3 |
| . | -6 | CC1CCCCC1NC(=O)NC(=O)Cn1cc(Br)ccc1=O (configuration not stated) |
| . | 12 | CCn1c(CSC/C=C/c2ccccc2)nc2cc(S(=O)(=O)N3CCOCC3)ccc21 |
| 1.6 | . | N/C(=N/O)C1COc2ccccc2O1 (configuration not stated) |
| . | -11 | CC1CCC2(CC1)NC(=O)N(CN1CCCC1)C2=O (configuration not stated) |
| . | 6 | CNC(=O)c1ccc(-c2nn(C)c(=O)c3ccccc23)cc1 |

Compound profiles (already shown). Values in the order: MgrA-DNA mod, Sa helicase inh
`CCn1c(CSC/C=C/c2ccccc2)nc2cc(S(=O)(=O)N3CCOCC3)ccc21` as listed: ., 12
`O=C(Nc1ccccc1)Nc1ccc2c(c1)OCO2` as listed: 2.5, 8

Further structures.
| MgrA-DNA mod | Sa helicase inh | mol |
| --- | --- | --- |
| -0.1 | 6 | Cc1ccc(-c2nnc(OCc3cccnc3)c3ccccc23)cc1 |
| -3.2 | . | O=C(O)CNC(=O)CSc1ccccc1 |
| . | 10 | CCN(Cc1ccccc1)C(=O)CSc1nccc(=O)[nH]1 |
| -2.5 | 14 | Cc1cccc(NC(=O)c2ccccc2C(=O)O)c1 |
| -2.0 | 12 | Cc1nn2c(c1-c1ccccc1)NC1=C(C(=O)CCC1)C2c1cccnc1 (configuration not stated) |
| . | 8 | O=C1CCCN1Cc1cc(Cl)c2cccnc2c1O |
| . | -3 | CCOC(=O)CSc1cc(C)nc(SCC(=O)OCC)n1 |
| -2.2 | 12 | CC(C)CC(C(=O)O)N1C(=O)c2ccccc2C1=O (configuration not stated) |
| 0.8 | . | CC(=O)Nc1cc([N+](=O)[O-])ccc1-n1cc(C)c(C(F)(F)F)n1 |
| . | -12 | O=C(c1ccccc1)N1CCCCC(Sc2nnnn2-c2ccccc2)C1=O (configuration not stated) |
| . | -12 | COc1cccc(C(=O)Nc2ccc3nc(SC)sc3c2)c1 |
| . | 8 | CN(C)C(=O)c1ccc(COc2ccccc2Br)o1 |
| . | -17 | CC(C)C(NS(=O)(=O)c1ccc2c3c(cccc13)C(=O)N2C)C(=O)O (configuration not stated) |
| . | -4 | Cc1ccc(CSc2nnc(-c3ccc(C)cc3)n2N)cc1 |
| . | 9 | Cc1ccc(CS(=O)(=O)CCC(=O)NCC2CCCO2)cc1 (configuration not stated) |
| 0.4 | 9 | CCCCC(CC)CNc1nc(=S)[nH]c2ccccc12 (configuration not stated) |
| -1.0 | . | CSc1cccc(NC(=O)CSc2ccc(C(F)(F)F)cn2)c1 |
| 2.5 | . | CCCCC1(Cc2ccccc2)C(=O)Nc2ccccc2C1=O (configuration not stated) |
| . | -4 | N#CCC(=O)N/N=C/c1ccccc1 |
| . | 10 | O=C1c2ccccc2C(=O)N1/N=C/c1ccc(OC(F)F)cc1 |
| -2.3 | . | CC(C)S(=O)(=O)c1cscc1NS(=O)(=O)c1ccc(Cl)cc1 |
| -1.7 | 16 | Cc1ccc2c(c1)c1c(n2CC(O)CNCc2ccccc2)CCCC1 (configuration not stated) |
| 0.1 | . | COc1ccc(OCC(O)CNC(=O)c2cccs2)cc1 (configuration not stated) |
| . | 5 | CCCN(CC(=O)c1cc(C)n(C)c1C)S(=O)(=O)c1cccc(C(F)(F)F)c1 |
| . | -27 | CC12C(=O)N(c3ccc(Br)cc3)C(=O)C1ON(c1ccccc1)C2c1ccccc1O (configuration not stated) |
| 1.5 | 7 | CCOC(=O)c1c(-c2ccc(OC)cc2)csc1NC(=O)CSc1nnc2ccccn12 |
| -0.2 | 18 | O=C(Nc1ccccc1)Nc1ccc(I)cn1 |
| 0.9 | . | CO[C@@H]1[C@H](OC(N)=O)C(O)[C@H](Oc2ccc3c(O)c(NC(=O)c4ccc(O)c(CC=C(C)C)c4)c(=O)oc3c2C)OC1(C)C (some centres not stated) |
| -6.8 | 5 | CNC(=O)c1cc(I)c(OC)c(OC)c1 |
| 2.2 | . | CC1(C)CN(c2ccc(I)cc2)C1=O |

2 entries drawn at random from those above:
| MgrA-DNA mod | Sa helicase inh | mol |
| --- | --- | --- |
| . | -20 | O=C(c1ccc(S(=O)(=O)N2CCCCC2)cc1)N1CCN(c2cccc(Cl)c2)CC1 |
| . | -6 | CC1CCCCC1NC(=O)NC(=O)Cn1cc(Br)ccc1=O (configuration not stated) |

The list continues:
| MgrA-DNA mod | Sa helicase inh | mol |
| --- | --- | --- |
| -1.3 | -15 | O=C(OCc1ccc(Cl)cc1Cl)C1CCC1 |
| . | -12 | CN(Cc1ccccc1)C(=O)CSc1nnnn1C |
| . | 4 | CCOC(=O)c1ccc2c(c1)nc(SCC(=O)NC(C)C(C)C)n2CC (configuration not stated) |
| . | -2 | CCOC(=O)c1csc2ncc(C#N)c(=O)n12 |
| . | 16 | CC(C)(C)c1[nH]oc(=O)c1N=O |
| 1.0 | 12 | COc1ccc2c(c1)OC(O)(C(F)(F)F)CC2=O (configuration not stated) |
| . | -6 | O=c1ccn(Cc2ccccc2)c(=O)[nH]1 |
| 3.1 | -2 | O=C(COc1ccccc1O)N1CCCCC1 |
| . | 6 | Cc1noc(-c2ccccc2O)n1 |
| . | -3 | O=c1nc2sc3ccccc3n2c(=O)n1-c1ccc(Cl)cc1 |

Filtered by structure: the compounds so far containing a thiophene ring, fused or not
| MgrA-DNA mod | Sa helicase inh | mol |
| --- | --- | --- |
| 3.8 | 12 | C=CCn1c(SCC(=O)NCCc2ccccc2)nc2sc3c(c2c1=O)CCCC3 |
| -2.3 | . | CC(C)S(=O)(=O)c1cscc1NS(=O)(=O)c1ccc(Cl)cc1 |
| 0.1 | . | COc1ccc(OCC(O)CNC(=O)c2cccs2)cc1 (configuration not stated) |
| 1.5 | 7 | CCOC(=O)c1c(-c2ccc(OC)cc2)csc1NC(=O)CSc1nnc2ccccn12 |

The list continues.
| MgrA-DNA mod | Sa helicase inh | mol |
| --- | --- | --- |
| 1.1 | -3 | CN(C(=O)c1ccc(COc2ccccc2Cl)o1)c1ccccc1 |
| . | 43 | CCOC(=O)C1CCCN(C2=NC(=O)/C(=C/c3ccc(OC)c(OC)c3)S2)C1 (configuration not stated) |
| -0.8 | 15 | CCOC(=O)Nc1cccc(O)c1 |
| . | -13 | Cc1ccccc1/C=C(\C#N)C(=O)OC(C)(C)C |
| -0.4 | . | CN(C)c1ccc(/C=C2/SC(=O)N(CNc3ccccc3Br)C2=O)cc1 |
| -0.7 | . | CC1(C)C2CCC1(C)C(NC(=O)c1ccc(Cl)cc1Cl)C2 (configuration not stated) |
| . | 3 | CN1CCC(N(C)Cn2ncn(-c3ccccc3)c2=S)CC1 |
| -0.1 | 10 | O=C(Nc1ccc(Cl)cc1)NC(Cc1ccccc1)C(=O)O (configuration not stated) |
| -1.0 | 5 | Cc1nc(NS(=O)(=O)c2ccccc2)sc1NC(=O)Nn1cnnc1 |
| -0.5 | 6 | CCOC(=O)Cn1cnc2sc(C)c(C)c2c1=O |

By substructure, those above containing an NH in an aromatic ring
| MgrA-DNA mod | Sa helicase inh | mol |
| --- | --- | --- |
| -0.3 | . | COc1cc(C(=O)N=Nc2c(O)[nH]c3ccc(Br)cc23)cc(OC)c1OC |
| . | 10 | CCN(Cc1ccccc1)C(=O)CSc1nccc(=O)[nH]1 |
| 0.4 | 9 | CCCCC(CC)CNc1nc(=S)[nH]c2ccccc12 (configuration not stated) |
| . | 16 | CC(C)(C)c1[nH]oc(=O)c1N=O |
| . | -6 | O=c1ccn(Cc2ccccc2)c(=O)[nH]1 |

Additional entries
| MgrA-DNA mod | Sa helicase inh | mol |
| --- | --- | --- |
| . | -4 | CCOC(=O)N1CCN(Cn2nnc3ccccc3c2=O)CC1 |
| . | -37 | O=C(NCC(c1cccnc1)N1CCN(c2ccccc2)CC1)c1ccccc1 (configuration not stated) |
| . | 6 | C/C(N)=C(/C#N)C(=O)CSc1nc2nc(C)cc(C)n2n1 |
| -0.7 | . | O=C1COc2ccccc2N1C(=O)c1ccc(Cl)cc1 |
| 0.8 | . | Cn1cnc(S(=O)(=O)NC2CCN(Cc3c(F)cccc3Cl)CC2)c1 |
| 4.8 | 17 | Cc1ccc(CN2COc3c(Cl)cc4c(C)c(C)c(=O)oc4c3C2)cc1 |
| -0.2 | . | Nc1nccc(-c2nn(-c3ccc(Cl)cc3)ccc2=O)n1 |
| 6.0 | 15 | COC(=O)C1=C(NC(=O)c2cccc(Cl)c2)CCS1 |
| . | 1 | Cc1c(C#N)c(N)c(C(=O)c2ccccc2)n1-c1ccccc1 |
| . | 4 | Cc1nnc(SCC(=O)N2CCN(c3cccc(Cl)c3)CC2)n1C1CC1 |
| -1.1 | -11 | Cc1nnc(SCc2cn3cc(Br)ccc3n2)n1C |
| . | -15 | CNC(=S)N/N=C/c1c(C(=O)OC)cnn1-c1ccc(F)cc1F |
| 1.1 | 11 | COc1cccc(-c2cc(C(=O)NC3CCCC3)no2)c1 |
| . | 0 | CCCN1c2ccccc2NC1NC(=O)CCN(c1ccc(OC)cc1)S(=O)(=O)c1ccc(C)cc1 (configuration not stated) |
| . | 12 | COc1ccc(CNCC2(O)CCOC(C)(C)C2)cc1 (configuration not stated) |
| 0.0 | -1 | COc1ccc(Cl)cc1N/C=C(/C#N)c1nc2ccccc2n1C |
| -1.1 | 1 | C=C(C)Cn1c(=S)[nH]c2ccccc2c1=O |
| 2.0 | 9 | O=C(CSc1nnc(-c2ccco2)o1)N1CCCc2ccccc21 |
| . | -40 | N#CCn1c(CSc2nnc(COc3ccccc3Cl)n2C2CC2)nc2ccccc2c1=O |
| . | -21 | Cn1c2ccccc2c2cnn(CC(=O)NCCN3CCCCCC3)c(=O)c21 |
| 2.4 | 13 | COc1ccc2[nH]c3c(=O)n(Cc4ccc(C(=O)NCCc5ccc(C)cc5)cc4)c(=S)[nH]c3c2c1 |
| 0.4 | 10 | O=C(NCCc1ccccc1)c1ccc2c(c1)NC(=O)C1CCCN21 (configuration not stated) |
| -0.9 | 0 | Cc1c(C)n(C(=O)CSc2nc3ccccc3s2)c2ccccc12 |
| . | -12 | CCOc1ccc(C(=O)CSc2nnc(CC)n2N)cc1 |
| -5.8 | 17 | CCOc1ccccc1C(=O)NC1CCNCC1 |
| . | -26 | CC(O)CNc1cc(=O)oc2ccccc12 (configuration not stated) |
| . | 13 | CCC(=O)N1CCc2cc(S(=O)(=O)NCC(OC)OC)ccc21 |
| . | -14 | O=C(O)c1ccc(O)c(Br)c1 |
| . | 7 | Cc1cc(/C=N/N=C2\C(=O)Nc3ccccc32)c(C)n1CC(C)C |
| 1.4 | 10 | COC(=O)c1cc(C)sc1NC(=S)Nc1cnn(C)c1C(N)=O |
| -0.2 | . | O=C(Nc1ccc(CN2CCS(=O)(=O)CC2)cc1)c1ccccc1 |
| -6.3 | 5 | CCn1cc(-c2cc(C(=O)O)no2)cn1 |
| . | 4 | COc1ccc(NC(=S)NC2CCCCC2)cn1 |
| . | -6 | Cc1ccc(C2(c3ccc(C)o3)CCCCC2)o1 |
| 0.6 | 1 | O=C(O)CCSc1nc(-c2ccccc2)cc(=O)[nH]1 |
| . | -8 | CCn1nc(C(=O)OC)c2ccccc2c1=O |
| . | 14 | O=C(NC1C(=O)NN(c2ccccc2)C1c1ccc(Cl)cc1)c1ccco1 (configuration not stated) |
| 1.9 | -1 | CCn1c(SCC(=O)N2CCCCC2)nnc1-c1ccc(S(=O)(=O)N2CCCC2)cc1 |
